# Screening results as filed in PubChem.
# PrP 5UTR inh: inhibition of PrP 5' UTR reporter expression; cell-based PrP 5' UTR mRNA reporter, plate reader; 0.35% of 340,000 active; inhibition, % (concentration not given with the values);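 active = every replicate at 50% or more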;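 note: 0 = median of the neutral control wells; tested in H4 reporter cells; numbers are from one replicate; inactives centre near -14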
# Autofluor counter: counter-screen for toxin protease inhibitors: compound fluorescence; AID 624483; compound autofluorescence counterscreen, microsphere flow cytometry; active compounds read high; 3.1% of 360,000 active; fluorescence intensity (test concentration not listed);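 active = at least 3 SD above the mean of all compounds, about 16000 in these data; inconclusive = too few beads counted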;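 note: 100 nL of 1 mM stock went into each well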
# ugtP null kill: growth inhibition of S. aureus ugtP deletion strain | 0.54% of 330,000 active | S. aureus RN4220 ugtP deletion, OD600 growth, 16 h; some inactives read as strong as hits | growth inhibition, % (concentration not given with the values);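 active = z-score under -3 and OD600 up to 0.15 on both plates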;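 note: plate controls were untreated wells for no effect and antibiotic for full effect; wells of about 80 µL received 100 nL stock; the first replicate is given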
# Sa RN4220 lethal: kills Staphylococcus aureus RN4220; S. aureus RN4220 growth, OD600, 16 h; inhibition, % (no concentration beside the values); 0.33% of 330,000 active;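 active = z-score of -3 or lower and OD600 up to 0.18 on both plates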;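 note: plate controls were untreated cells for no effect and reference antibiotic for full effect; stock transfer was 100 nL into about 80 µL; one replicate is shown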
# Mtb hypoxia inh: inhibitors of hypoxia-regulated fluorescent reporter in Mycobacterium tuberculosis. M. tuberculosis hypoxia-regulated fluorescent reporter, fluorescence. 0.1% of 300,000 active. fluorescence inhibition, % (concentration not given with the values);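 active = 35 to 45% if threefold the growth effect, above 45% if 1.5-fold the growth effect; inactive = the rest, general growth blockers included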;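 note: wells of about 50 µL received 100 nL stock; 0% = vehicle wells and 100% = reference inhibitor wells; whole bacteria with a GFP reporter of the hypoxia response; strong numbers were not always called active; many hits fall short of the cut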
# BJeLR viability: BJeLR cell viability loss. BJeLR (HRASV12) viability, CellTiter-Glo ATP luminescence, 48 h; reference of the scale not given here. inhibition, % (test concentration not listed). 0.17% of 300,000 active. AID 1554;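 active = replicate mean above 50%; inconclusive = above 50% but judged a plate artefact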;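 note: 50 nL library stock added to about 25 µL; numbers are from one replicate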
# Mtb hypoxia inh growth: also measured in Mtb hypoxia inh; calls as there; growth inhibition, %; measured here: M. tuberculosis growth (absorbance);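 0% = vehicle and 100% = reference antibiotic; read after six days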
# Numbers without * were called inactive; ? = inconclusive; · = no result given.
SMILES,PrP 5UTR inh,Autofluor counter,ugtP null kill,Sa RN4220 lethal,Mtb hypoxia inh,Mtb hypoxia inh growth,BJeLR viability
O=C(CN1CCN(S(=O)(=O)c2cccc(Cl)c2)CC1)N1CCCCC1,-8.2,3957,-1.3,0.9,-0.6,9.1,·
CCOc1cc(-c2cc(-c3ccc(NC(C)=O)cc3)nc(N)c2C#N)ccc1O,-25.0,3698,-12.3,2.6,-0.6,-18.4,-0.4
CN(CC(=O)Nc1ccccc1Br)Cc1nc2ccccc2c(=O)[nH]1,-29.8,4392,1.8,4.3,·,·,0.4
O=C(CCC(=O)c1cccs1)OCC(=O)c1ccccc1F,-24.5,5662,3.4,0.5,1.2,-3.0,·
On1nnc2cc(C(F)(F)F)ccc21,-5.3,4515,6.5,7.6,13.3,9.4,-2.9
COCCn1cnnc1SCC(=O)c1ccc(S(=O)(=O)N2CCCC2)cc1,-23.1,3967,-5.3,1.8,·,·,-4.7
Cc1nn(Cc2ccccc2)c2c1C(c1ccco1)C(C#N)=C(N)O2 (stereo not given),-12.8,4195,-1.2,6.6,·,·,4.2
CCN(CC)C(=O)[C@H]1C[C@H](CC(=O)NCc2ccco2)C(=O)N2CCc3c([nH]c4cc(-c5ccco5)ccc34)[C@]12C,-9.9,3348,25.1,0.0,-4.6,1.5,·
Cc1ccc(SCC(=O)NCCC2=CCCCC2)cc1,-8.0,15614,-3.2,3.3,5.7,11.4,1.3
Cc1cc(N2CCN(C)CC2)ccc1NC(=O)c1c2c(nc3ccccc13)CCN(Cc1ccccc1)C2,-21.7,3169,2.7,2.0,-5.0,-0.5,25.6
CCOC(=O)C1=C(C)NC(=S)NC1c1cccs1 (stereo not given),-11.3,2588,2.1,-0.9,9.0,7.8,-5.1
CCCN1CCN(C(=S)Nc2ccccc2C(F)(F)F)CC1,-13.6,2158,3.1,3.3,4.3,1.0,3.1
COc1ccccc1CN1CCC(CNS(=O)(=O)c2cc(-c3cc(C)no3)ccc2C)CC1,-10.3,5452,12.2,3.4,2.6,4.8,11.6
CC(C)CN(C(=O)c1cccc(F)c1)c1c(N)n(CC(C)C)c(=O)[nH]c1=O,-12.9,3581,3.0,3.6,8.7,2.6,-8.9
NC(=O)CC(NC(=O)Cc1ccc(Cl)cc1)c1ccc(NCC2CC2)c([N+](=O)[O-])c1 (stereo not given),-18.1,4043,0.8,4.4,7.4,5.4,-5.8
CC(C)N(C(=O)[C@H]1C[C@H](CC(=O)NCCC2=CCCCC2)C(=O)N2CCc3c([nH]c4ccc(Cl)cc34)[C@]12C)C(C)C,-5.8,2975,-26.2,-3.2,-2.1,1.5,·
O=S(=O)(c1ccc(F)cc1)N1CCC(n2cnc3ccccc32)CC1,-24.7,3877,-4.2,12.5,4.8,1.5,-6.7
COc1cc2ccc(=O)oc2cc1OCC(O)C(C)(C)O (stereo not given),-10.0,4374,9.4,6.7,·,·,-5.2
COc1ccc(OC)c(C2C(C(=O)Nc3ccc(F)cc3)=C(C)Nc3nc(CCCO)nn32)c1 (stereo not given),-14.5,6293,3.3,3.5,·,·,·
COc1ccccc1/C=C1\SC(=S)N(CCC(=O)NCCCn2ccnc2)C1=O,-1.1,5663,12.3,7.1,5.6,0.4,77.7*
O=C(O)c1cc([N+](=O)[O-])c(Sc2nc3ccccc3[nH]2)c([N+](=O)[O-])c1,-10.4,3449,6.8,2.7,17.0,6.1,14.3
COc1ccc(-c2nc3c4ccccc4ccn3c2C=O)cc1,-7.7,2594,4.6,5.5,10.5,4.6,-5.9
Cc1ccc(C(=O)OC2CCS(=O)(=O)c3sccc32)cc1 (stereo not given),-1.0,2468,-2.4,0.4,·,·,-2.6
COCCN1C(=O)NC(c2cccc(C(F)(F)F)c2)C(C(C)=O)C1C (stereo not given),·,·,-9.4,4.4,13.1,7.6,·
CC(=O)Nc1cccc2c1C(=O)N(c1ccccc1OC(C)=O)C2=O,29.5,4499,2.3,5.2,12.4,-2.8,4.0
O=C(c1ccc2c(c1)OCCO2)N1CCN(c2ncc(C(F)(F)F)cc2Cl)CC1,0.4,?,-0.3,0.1,-13.9,1.5,-3.8
CCN(Cc1ccccc1)C(=O)C1CCN(C(=O)Nc2ccccc2)CC1,-6.8,?,4.7,3.2,-0.5,1.9,-6.5
Cc1cccc(NC(=O)Nc2ccncc2)c1,-11.1,2151,-4.7,-2.6,3.6,3.2,-6.4
O=C(Nc1ccccc1C(=O)NC1CCCCC1)c1ccco1,-15.3,2798,-12.0,-7.5,13.3,13.2,4.3
Cc1cc(OC(=O)c2ccccc2Cl)ccc1N1C(=O)CCC1=O,-14.6,5045,6.8,5.1,6.8,2.9,5.4

# Three of the compounds above, with two lines to a compound:
# Order of values – PrP 5UTR inh, Autofluor counter, ugtP null kill, Sa RN4220 lethal, Mtb hypoxia inh, Mtb hypoxia inh growth, BJeLR viability
O=C(O)c1cc([N+](=O)[O-])c(Sc2nc3ccccc3[nH]2)c([N+](=O)[O-])c1
    -10.4, 3449, 6.8, 2.7, 17.0, 6.1, 14.3
O=C(c1ccc2c(c1)OCCO2)N1CCN(c2ncc(C(F)(F)F)cc2Cl)CC1
    0.4, ?, -0.3, 0.1, -13.9, 1.5, -3.8
COc1ccc(-c2nc3c4ccccc4ccn3c2C=O)cc1
    -7.7, 2594, 4.6, 5.5, 10.5, 4.6, -5.9

# Later entries
SMILES,PrP 5UTR inh,Autofluor counter,ugtP null kill,Sa RN4220 lethal,Mtb hypoxia inh,Mtb hypoxia inh growth,BJeLR viability
Cc1ccnc(NC(=S)NC(=O)c2cccs2)c1,-22.5,2022,-10.3,4.7,13.9,7.8,-14.3
O=C(COC(=O)Cc1ccc(F)cc1)NC(=O)NC1CCCC1,-12.9,3058,12.5,3.0,3.8,2.0,·
COc1ccccc1C1(CCNS(=O)(=O)c2ccc(C)cc2)CCOC(C(C)C)C1 (stereo not given),-22.0,7521,-17.3,14.8,6.6,2.9,-4.9
Cc1ccc(CSCC(=O)Nc2cc(S(=O)(=O)N3CCOCC3)ccc2OCC(F)(F)F)cc1,-1.7,3099,2.1,7.2,11.4,6.7,·
CCN(CC)CCNC(=O)Cn1nc(Cc2cccnc2)c2ccccc2c1=O,-8.3,6405,-0.2,6.5,-2.2,-2.9,4.5
CCCN1C(C)C(C(=O)OCC)=CN(Cc2ccc(Br)cc2)S1(=O)=O (stereo not given),-13.4,3232,2.1,4.1,5.6,10.3,·
O=C(c1ccccc1)c1c[nH]c(C(=O)NCCCn2ccnc2)c1,18.5,3617,2.6,4.9,·,·,-5.5
Cc1ccc(OCCCC(=O)Nc2cc(S(=O)(=O)N3CCOCC3)ccc2N2CCOCC2)cc1,-20.3,5878,2.2,2.2,2.9,-2.5,·
CC(=O)N1CCc2cc(S(=O)(=O)N3CCCCC3C)ccc21 (stereo not given),-4.1,4522,5.4,6.9,1.9,-1.1,-14.6
O=C1CCC(C(=O)N2CCC(CCO)CC2)CN1Cc1ccc(Cl)cc1 (stereo not given),-23.7,5562,-2.5,-3.2,-7.6,3.4,7.2

# Gathered by group: the entries above containing a thiophene ring, fused or not
SMILES,PrP 5UTR inh,Autofluor counter,ugtP null kill,Sa RN4220 lethal,Mtb hypoxia inh,Mtb hypoxia inh growth,BJeLR viability
O=C(CCC(=O)c1cccs1)OCC(=O)c1ccccc1F,-24.5,5662,3.4,0.5,1.2,-3.0,·
CCOC(=O)C1=C(C)NC(=S)NC1c1cccs1 (stereo not given),-11.3,2588,2.1,-0.9,9.0,7.8,-5.1
Cc1ccc(C(=O)OC2CCS(=O)(=O)c3sccc32)cc1 (stereo not given),-1.0,2468,-2.4,0.4,·,·,-2.6
Cc1ccnc(NC(=S)NC(=O)c2cccs2)c1,-22.5,2022,-10.3,4.7,13.9,7.8,-14.3

# More entries:
SMILES,PrP 5UTR inh,Autofluor counter,ugtP null kill,Sa RN4220 lethal,Mtb hypoxia inh,Mtb hypoxia inh growth,BJeLR viability
CC(=NCc1cccnc1)c1c(O)n(Cc2ccccc2)c(=O)[nH]c1=O,-5.7,5958,-8.3,-5.7,-9.5,9.2,8.9
O=C1c2ccccc2NC(c2cnc3ccccc3n2)N1O (stereo not given),-29.6,2791,0.8,7.6,0.4,0.9,-0.4
Cc1ccc(N(C(C)C(=O)NCc2ccncc2)S(C)(=O)=O)cc1C (stereo not given),2.4,2042,-3.1,0.7,2.8,5.4,-6.1
C=CCn1c(C)c(C(C)=O)cc(NC(=O)c2ccccc2)c1=O,-60.2,4580,-13.4,5.5,9.1,10.3,6.3
CC1CCC(=NNc2ccc(C(F)(F)F)cc2[N+](=O)[O-])CC1 (stereo not given),-15.7,2391,18.7,16.6,-0.1,6.1,8.2
CCC(Oc1ccc(C)cc1)C(=O)Nc1ccc(S(=O)(=O)Nc2cc(C)on2)cc1 (stereo not given),-7.9,4094,4.4,12.2,11.7,1.0,-0.2
C=CCn1c(O)c(N=NC(=O)CNC(=O)/C=C/c2ccc(OC)cc2)c2ccccc21,-5.7,5331,13.7,1.9,10.8,6.9,-6.5
CCOc1ccc(NC(=O)CCC(=O)N/N=C/c2ccc3c(c2)OCO3)cc1,-29.1,2631,·,·,·,·,6.6
Cc1cc(=O)oc2cc(OCC3CC(c4ccc(Br)cc4)=NO3)ccc12 (stereo not given),-16.0,19620*,-9.0,21.6,5.4,5.0,4.6
COC(=O)N/N=C/c1ccc(-c2ccc(C)c(Cl)c2)o1,-46.6,2539,·,·,·,·,1.5
COc1ccc(O)c(C(=O)c2cnc3c(c2)c(-c2ccc(F)cc2)c(C#N)c(=O)n3C)c1,-10.1,3263,1.9,9.7,-6.8,15.4,-1.8
Cc1ccc(C)c(NC(=O)c2ccc(OC(=O)c3ccco3)cc2)c1,·,10643,0.7,2.0,-0.7,11.3,1.1
CC(OC(=O)c1cccnc1Cl)C(=O)Nc1ccc(S(N)(=O)=O)cc1 (stereo not given),-23.5,4389,-3.0,4.8,3.9,0.0,3.6
CCCCn1c(=O)[nH]c(=O)c2c(C(=O)OCC)cc(-c3cccs3)nc21,-38.6,3117,10.2,5.3,-5.8,11.2,3.4
NS(=O)(=O)c1cccc(NC(=O)CSc2nc3ccccc3[nH]2)c1,-16.3,4714,3.3,0.4,-3.8,-3.1,-8.0
NC(=O)CSc1ccc(S(=O)(=O)N2CCOCC2)cn1,-17.1,3964,4.9,5.5,5.4,4.7,·
CSc1cccc(NC(=O)Nc2ccccc2)c1,-61.1,2392,-17.4,2.8,1.8,11.5,2.4
CCOc1ccc(CN2CCN(C(=O)c3ccco3)CC2)cc1,-8.2,·,4.7,4.2,15.1,3.7,2.4
CCOC(=O)c1c(C)[nH]c(C(=O)CN(C)CC(=O)Nc2ccccc2Cl)c1C,-21.7,3934,-4.7,-3.0,-10.8,7.2,·
Cc1ccc(S(=O)Cc2ccc(C(=O)N3CCN(C4CCCCC4)CC3)o2)cc1 (stereo not given),-27.1,6657,3.0,3.0,7.8,-0.4,8.6
CCOC(=O)c1ccc(NC(=O)CCC2COc3ccccc3O2)cc1 (stereo not given),-12.2,10647,-5.6,-2.6,5.1,13.5,4.8
O=C(NN=C(Cc1ccccc1)Cc1ccccc1)C1CC1,-22.5,4039,8.7,2.3,7.4,8.0,-0.3
Cc1nnc(N/N=C/c2ccc(-c3ccccc3F)o2)n1N,-31.1,2701,·,·,·,·,-5.4
CC(=O)Nc1ccc(Cl)cc1-c1ccccc1,-3.2,3550,-4.5,-1.4,-7.4,2.0,·
COc1ccc2c(c1)[nH]c1c(=O)n(Cc3ccncc3)cnc12,-17.3,3792,-10.5,2.1,-4.9,-2.6,-0.7
OCC1CCCN(Cc2cn(Cc3ccccc3)nc2-c2cc3ccccc3o2)C1 (stereo not given),-30.8,4518,1.0,4.6,10.2,5.7,6.6
CC(C)C(=O)NN(C(=O)c1ccccc1)c1ccccc1,-15.3,2667,4.2,0.7,-1.6,-0.5,-3.0
CCN(C(=O)COC(=O)/C=C/c1nc2ccccc2s1)C1CCS(=O)(=O)C1 (stereo not given),6.8,4315,2.0,0.0,5.1,3.4,-6.0
O=C(CN(C(=O)c1csnn1)c1cccc2ccccc12)NCc1ccc(F)cc1,-30.2,5539,6.9,-8.5,-0.1,1.6,-15.0
CNP(=O)(Oc1ccccc1)OC12CC3CC(CC(C3)C1)C2 (stereo not given),-35.3,4567,6.0,3.3,-3.9,7.6,3.9
C=C(C)Cn1c(SCCCO)nc2c1c(=O)[nH]c(=O)n2C,-10.6,3294,6.0,2.2,·,·,-1.6
CC(=O)c1cc(F)c(N2CCOCC2)cc1C,-19.2,10815,7.1,5.1,10.5,12.6,2.4
Cc1ccc2[nH]c3c(N4CCOCC4)ncnc3c2c1,-33.5,4173,-3.9,1.7,0.9,5.1,35.0

# Hits appear at their usual frequency, and some 4% of all compounds hit somewhere here.
